# Screening results deposited in PubChem BioAssay by Broad Institute.
# HDAC3 inhib: HDAC3 deacetylase inhibitors, primary screen, biochemical, fluorescence, cell-free homogeneous; recombinant HDAC3, fluorogenic peptide/trypsin coupled; inhibition, % at 8.3 µM; hit rate 0.15% among 320,000; AID 2718, 2010; in the data active = inhibition above about 26%, passing the limit was not always enough; inconclusive = no clear call, values can overlap the other calls
# Target sequence (O15379 whole entry, looked up): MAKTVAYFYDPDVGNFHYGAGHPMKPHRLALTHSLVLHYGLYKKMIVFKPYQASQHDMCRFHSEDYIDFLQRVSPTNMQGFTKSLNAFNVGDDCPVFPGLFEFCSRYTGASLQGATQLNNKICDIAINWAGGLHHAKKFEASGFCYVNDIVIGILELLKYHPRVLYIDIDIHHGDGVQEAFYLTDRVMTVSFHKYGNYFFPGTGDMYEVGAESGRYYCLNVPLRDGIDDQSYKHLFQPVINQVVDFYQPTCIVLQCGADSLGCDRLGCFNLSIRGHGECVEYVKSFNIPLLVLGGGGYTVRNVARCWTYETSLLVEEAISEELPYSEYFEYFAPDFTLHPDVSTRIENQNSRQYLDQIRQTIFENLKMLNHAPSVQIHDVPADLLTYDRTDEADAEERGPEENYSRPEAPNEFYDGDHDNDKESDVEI
# GSK3beta inhib: human GSK3beta kinase inhibitors, primary screen, biochemical, cell-free homogeneous, HTS; GST-GSK3beta kinase, ADP-Glo luminescence, 60 min; stronger effect = lower value; activity score (negative = inhibition), % at 10 µM; hit rate 0.038% among 300,000; AID 2097, 2009;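 active = more than half of replicate wells score below -50%, meaning over 50% inhibition versus plate controls; inconclusive = some replicates but at most half score below -50%; inactive = no replicate scores below -50%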;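 note: 0% = median DMSO wells and -100% = median GW8510 positive control wells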
# Target sequence (P49841 whole entry, looked up): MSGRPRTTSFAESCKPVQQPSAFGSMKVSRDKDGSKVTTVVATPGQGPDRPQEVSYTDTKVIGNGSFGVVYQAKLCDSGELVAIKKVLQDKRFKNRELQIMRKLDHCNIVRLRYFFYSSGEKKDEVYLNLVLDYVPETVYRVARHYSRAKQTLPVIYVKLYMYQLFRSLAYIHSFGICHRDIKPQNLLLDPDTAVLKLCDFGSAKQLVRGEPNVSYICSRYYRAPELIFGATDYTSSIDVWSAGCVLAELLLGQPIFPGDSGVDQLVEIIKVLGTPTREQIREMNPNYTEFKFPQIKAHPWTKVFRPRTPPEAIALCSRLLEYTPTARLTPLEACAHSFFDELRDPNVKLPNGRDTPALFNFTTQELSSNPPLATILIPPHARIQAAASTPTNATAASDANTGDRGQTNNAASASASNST
#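 Assay system: GST-fused GSK3beta enzyme, cell-free / Medium: Tris pH 7.5 buffer with MgCl2, DTT, BSA, heparin / Also added: peptide substrate plus 25 µM ATP (final) / Compound: 10 µM single point / Timing: kinase reaction with compound 60 min at room temperature / Detection: ADP-Glo luminescence / Benchmarks: DMSO neutral wells and GW8510 at 20 µM as positive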
# AI-2 QS modul: Vibrio harveyi AI-2 quorum sensing modulators, primary screen, JMH597 strain, luminescence/OD600 ratio. hit rate 0.4% among 300,000. Vibrio harveyi JMH597 AI-2 luminescence/OD600 ratio, 9 h; stronger effect = lower value; strain lacks LuxN and CqsS sensors; 0 = neutral-control median. activity change, % at 7.5 µM; in the data active = activity change below about -75%, passing the limit was not always enough; inconclusive = no clear call, values can overlap the other calls;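 note: luminescence divided by OD600 gain over 9 h not by final OD600 alone; inactives centre near 13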
# DYRK1A inh: rat Dyrk1A kinase inhibitors, primary screen, biochemical, single point, plate reader. Dual specificity tyrosine-phosphorylation-regulated kinase 1A (Rattus norvegicus), Q63470. ADP-Glo luminescence, NFATc1 peptide. inhibition, % at 12.5 µM. hit rate 0.43% among 310,000. AID 504441, 2011; in the data active = inhibition above about 50%;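 note: plate controls were vehicle with enzyme for no effect and no enzyme for full effect; many of its hits are not listed in these tables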
# GSK3 alpha inh: blockers of GSK3A enzyme activity – biochemical, luminescence, cell-free homogeneous, HTS, primary screen; Glycogen synthase kinase-3 alpha (Homo sapiens), P49840; GSK-3 alpha kinase, ADP-Glo luminescence, 60 min; inhibition, % at 10 µM; hit rate 0.1% among 320,000; AID 2650, 2010;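 in the data active = inhibition above about 50%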;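 note: GST-tagged GSK-3 alpha with peptide substrate and 25 µM ATP; 0% = DMSO neutral wells and 100% = GW8510 positive control wells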
# An asterisk follows results filed as active; ? = inconclusive; · = not tested or not shown; & = joins results of further samples. Not all compounds are listed; the hit share may differ from the screen's.
smiles | HDAC3 inhib | GSK3beta inhib | AI-2 QS modul | DYRK1A inh | GSK3 alpha inh
COc1ccccc1OCC(O)CO (stereo not given) | -3 | -4 | -3 | 0 | -1
CC(C)CC(Nc1ncnc2scc(-c3ccccc3)c12)C(=O)O (stereo not given) | 0 | 2 | 34 | 1 | -3
COCCn1c(C)cc(C(=O)COC(=O)c2cccc(O)c2)c1C | · | -8 | 41 | 5 | 3
CC(C)NCC(O)COc1cccc2[nH]ccc12 (stereo not given) | -3 | · | · | 10 | 0
Cc1ccc(-c2cn3cc([N+](=O)[O-])ccc3n2)cc1 | 6 | 0 | 24 | -2 | 1
COC(=O)c1sccc1NC(=O)Nc1ccc(F)cc1 | · | 0 | -6 | -3 | 3
COc1cccc2c1C(=O)c1c(O)c3c(c(O)c1C2=O)C[C@@](O)(C(=O)CO)C[C@@H]3O[C@H]1C[C@H](N)[C@@H](O)[C@H](C)O1 | -5 | 0 | 11 | 22 | 3
COC(=O)Nc1sc(C)nc1-c1ccccc1 | -4 | 5 | 23 | 5 | 1
O=c1c(O)c(-c2ccc(O)cc2)oc2cc(O)cc(O)c12 | 7 | -31 | 12 | 59* | 8
Cn1cccc1Cc1nnc(SCC(=O)NCc2ccccc2Cl)n1-c1ccc(F)cc1 | -1 | 3 | 26 | -3 | -2

# The results go on.
smiles | HDAC3 inhib | GSK3beta inhib | AI-2 QS modul | DYRK1A inh | GSK3 alpha inh
O=c1c2sc(-c3ccccc3)cc2nc2n1CCC2 | 1 | -1 | -4 | 7 | 1
COc1cc(S(=O)(=O)n2c(C)nc3ccccc32)ccc1F | -7 | 0 | 19 | -1 | 7
C[C@H]1C[C@H]2[C@@H]3CCC4=CC(=O)C=C[C@]4(C)[C@@]3(F)[C@@H](O)C[C@]2(C)[C@@]1(O)C(=O)CO | -1 | -5 | -1 | 10 | 0
O=C(COC(=O)Cc1ccc(S(=O)(=O)N2CCOCC2)s1)Nc1ccc2c(c1)OCO2 | -12 | 2 | 20 | -11 | 2
Cc1ccc(C(=O)c2no[n+]([O-])c2C(=O)c2ccc(C)cc2)cc1 | 4 | 3 | ? | 3 | 2
COc1cccc2c1C(=O)c1c(O)c3c(c(O)c1C2=O)C[C@@](O)(C(C)=O)C[C@@H]3O[C@H]1C[C@H](N)[C@H](O)[C@H](C)O1 | · | · | · | 4 | ·
COCCc1ccc(OCC(O)CNC(C)C)cc1 (stereo not given) | 6&1 | 1 | 14 | 0&8&-1 | 1&-1
CC(=O)OCC(=O)[C@@]1(O)CC[C@H]2[C@@H]3CCC4=CC(=O)CC[C@]4(C)[C@H]3C(=O)C[C@@]21C | 15 | 4 | 5 | -4 | -1
COc1ccc(/C=N/NC(=O)c2nonc2C)cc1 | -4 | 1 | 20 | 4 | 2
CC/C(=C(\c1ccccc1)c1ccc(OCCN(C)C)cc1)c1ccccc1 | -1&4 | 3&-3 | 19&6 | 7&7 | 4&0

# Next section
smiles | HDAC3 inhib | GSK3beta inhib | AI-2 QS modul | DYRK1A inh | GSK3 alpha inh
O=C(CSc1ncnc2ccccc12)NCc1ccc2c(c1)OCO2 | 2 | -2 | -2 | · | -1
CC(C(=O)O)c1cccc(C(=O)c2ccccc2)c1 (stereo not given) | -7 | 1 | 32 | 3 | -2
Cn1c(Cc2ccccc2)[n+](C)c2ccccc21 | -4 | 4 | 21 | · | -1
O=C(O)Cn1nc(C(F)(F)F)c2c1CCCCC2 | 0 | 1 | 5 | 4 | -3
Nc1ncnc2c1ncn2[C@@H]1O[C@H](COP(=O)(O)O)[C@@H](O)[C@H]1O | -1 | 0 | 17 | -11 | -1
Cc1nc2ccccc2n1S(=O)(=O)c1ccc(F)cc1 | -4 | 2 | -1 | 2 | 1
CCOc1ccc(NC(=O)Nc2cc(C)ccc2F)cc1 | -3 | -1 | -5 | 5 | 9
CC(NC(=O)CCCCCCN1C(=O)c2ccccc2C1=O)c1ccc2c(c1)CCCC2 (stereo not given) | 1 | 6 | 6 | -5 | -1
COc1ccc(/C(N)=N/OC(=O)CSc2ccccc2)cc1 | 9 | · | · | -3 | 3
COC(=O)C1=C(C)NC(C)=C(C(=O)OCC(C)C)C1c1ccccc1[N+](=O)[O-] (stereo not given) | ? | 4 | 38 | 7 | 3

# (further entries)
smiles | HDAC3 inhib | GSK3beta inhib | AI-2 QS modul | DYRK1A inh | GSK3 alpha inh
CC(=O)NCCNC(=O)c1ccc(CSc2nc3ccccc3s2)cc1 | 2 | -1 | 27 | 8 | 1
Cc1nc(-c2ccc(NC(=O)c3ccco3)cc2)cs1 | 8 | -2 | 22 | 11 | 5
O=C1N=C(O)CN1/N=C/c1ccc(-c2ccc([N+](=O)[O-])cc2)o1 | 11 | -1 | 30 | 3 | 0
CNCC[C@H](Oc1ccc(C(F)(F)F)cc1)c1ccccc1 | 0 | · | · | 0 | 2
COc1ccc(C2SCC(=O)N2c2c(C)n(C)n(-c3ccccc3)c2=O)cc1OC (stereo not given) | -5 | 1 | 19 | 1 | ·
O=C(CCCN1CCC(O)(c2ccc(Cl)cc2)CC1)c1ccc(F)cc1 | 4&-4 | 1&4 | 15&8 | 6 | -2&0
O=C(O)[C@@H](O)[C@H](O)C(=O)O | -9 | -2 | 9 | 4 | 1
CCCCc1nc(Cl)c(CO)n1Cc1ccc(-c2ccccc2-c2nn[nH]n2)cc1 | -13 | 1 | 14 | -5 | -6
O=C(COC(=O)Cc1ccc(S(=O)(=O)N2CCOCC2)s1)NCc1ccc(Cl)cc1 | 2 | 0 | 10 | 7 | 0
O=C(c1ccc(O)cc1)c1ccc(O)cc1O | 3 | -3 | -18 | 32 | 8

# Continued:
smiles | HDAC3 inhib | GSK3beta inhib | AI-2 QS modul | DYRK1A inh | GSK3 alpha inh
COc1ccc(-c2nc3ccccc3s2)cc1 | · | · | · | 9 | ·
C[C@H]1C[C@@H]2[C@H]([C@@H](O)C[C@@]3(C)[C@H]2CC[C@]3(O)C(=O)CO)[C@@]2(C)C=CC(=O)C=C12 | -1 | -2 | 17 | 5 | -8
Cc1ccc2c(CC(=O)N3CCN(S(=O)(=O)c4ccc5c(c4)OCCO5)CC3)coc2c1 | 5 | 0 | 19 | 5 | -2
Cc1nc(-c2ccc(C(=O)Nc3ccccc3F)cc2)cs1 | -3 | 1 | 26 | 1 | -1

# Compound profiles, as listed above. Order of screens: HDAC3 inhib, GSK3beta inhib, AI-2 QS modul, DYRK1A inh, GSK3 alpha inh
# CC(C)NCC(O)COc1cccc2[nH]ccc12 (stereo not given) in the list: -3, ·, ·, 10, 0
# O=C1N=C(O)CN1/N=C/c1ccc(-c2ccc([N+](=O)[O-])cc2)o1 in the list: 11, -1, 30, 3, 0
# CCCCc1nc(Cl)c(CO)n1Cc1ccc(-c2ccccc2-c2nn[nH]n2)cc1 in the list: -13, 1, 14, -5, -6
# Cc1nc(-c2ccc(NC(=O)c3ccco3)cc2)cs1 in the list: 8, -2, 22, 11, 5
# COC(=O)C1=C(C)NC(C)=C(C(=O)OCC(C)C)C1c1ccccc1[N+](=O)[O-] (stereo not given) in the list: ?, 4, 38, 7, 3

# Some of these compounds in order of length of the SMILES, descending:
smiles | HDAC3 inhib | GSK3beta inhib | AI-2 QS modul | DYRK1A inh | GSK3 alpha inh
C[C@H]1C[C@@H]2[C@H]([C@@H](O)C[C@@]3(C)[C@H]2CC[C@]3(O)C(=O)CO)[C@@]2(C)C=CC(=O)C=C12 | -1 | -2 | 17 | 5 | -8
O=C(COC(=O)Cc1ccc(S(=O)(=O)N2CCOCC2)s1)NCc1ccc(Cl)cc1 | 2 | 0 | 10 | 7 | 0
CCCCc1nc(Cl)c(CO)n1Cc1ccc(-c2ccccc2-c2nn[nH]n2)cc1 | -13 | 1 | 14 | -5 | -6
O=C(CCCN1CCC(O)(c2ccc(Cl)cc2)CC1)c1ccc(F)cc1 | 4&-4 | 1&4 | 15&8 | 6 | -2&0
Cc1nc(-c2ccc(C(=O)Nc3ccccc3F)cc2)cs1 | -3 | 1 | 26 | 1 | -1
O=C(c1ccc(O)cc1)c1ccc(O)cc1O | 3 | -3 | -18 | 32 | 8

# Three entries drawn at random from the list so far, as already listed:
smiles | HDAC3 inhib | GSK3beta inhib | AI-2 QS modul | DYRK1A inh | GSK3 alpha inh
CC(=O)NCCNC(=O)c1ccc(CSc2nc3ccccc3s2)cc1 | 2 | -1 | 27 | 8 | 1
O=C(COC(=O)Cc1ccc(S(=O)(=O)N2CCOCC2)s1)NCc1ccc(Cl)cc1 | 2 | 0 | 10 | 7 | 0
C[C@H]1C[C@@H]2[C@H]([C@@H](O)C[C@@]3(C)[C@H]2CC[C@]3(O)C(=O)CO)[C@@]2(C)C=CC(=O)C=C12 | -1 | -2 | 17 | 5 | -8
